High-throughput results: PubChem BioAssay, Broad Institute
c-Myc SMM – c-Myc (human) binding | P01106 | small molecule microarray, His-c-Myc binding, anti-His fluorescence | calls only | 17,000 tested, 1.5% active | AID 624141;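 active = spot fluorescence over background with P-value below 7% in all four replicate spots, showing protein binding; compounds were printed on slides so no solution concentration is given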;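 also: score is binary with 100 for all four spots passing and 0 otherwise; about 2 pmol printed per array spot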
Target sequence (P01106 whole entry, looked up): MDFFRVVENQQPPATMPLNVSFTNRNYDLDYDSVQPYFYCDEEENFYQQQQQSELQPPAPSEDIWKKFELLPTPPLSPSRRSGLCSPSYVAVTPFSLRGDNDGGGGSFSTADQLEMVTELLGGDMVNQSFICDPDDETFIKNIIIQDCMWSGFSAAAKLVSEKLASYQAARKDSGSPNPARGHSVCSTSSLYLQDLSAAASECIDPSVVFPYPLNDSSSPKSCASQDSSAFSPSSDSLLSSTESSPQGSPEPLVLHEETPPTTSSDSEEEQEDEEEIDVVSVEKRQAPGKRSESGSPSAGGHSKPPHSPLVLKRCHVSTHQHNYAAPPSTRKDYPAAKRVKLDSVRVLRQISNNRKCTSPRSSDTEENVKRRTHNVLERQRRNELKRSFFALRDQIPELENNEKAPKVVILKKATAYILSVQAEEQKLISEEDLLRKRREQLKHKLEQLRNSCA
ID4 SMM – binds human ID4 protein on microarray; calls only; 31,000 tested, 1.2% active; AID 624137; small molecule microarray, Flag-ID4 binding, fluorescence F/B;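 active = spot signal over background at p below 0.07 in all four prints; compounds were printed on slides so no solution concentration is given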;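 also: a binder raises fluorescence above local background on the spot; about 2 pmol printed per array spot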
Target sequence (P47928 whole entry, looked up): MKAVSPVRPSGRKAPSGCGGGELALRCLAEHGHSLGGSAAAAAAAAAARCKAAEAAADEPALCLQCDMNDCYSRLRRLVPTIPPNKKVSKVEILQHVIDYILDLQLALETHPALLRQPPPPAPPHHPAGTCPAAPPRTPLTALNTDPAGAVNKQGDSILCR
mut p53 SMM – binders of human mutant p53; calls only; small molecule microarray binding, anti-GST fluorescence; 17,000 tested, 0.4% active; AID 624136;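 active = compounds whose four printed spots each glow above background more than chance allows, each with a p-value under 7%; compounds were printed on slides so no solution concentration is given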;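 also: about 2 pmol printed per array spot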
STAT3 binder – binders of human STAT3 | 17,000 tested, 0.2% active | calls only | Small molecule microarray, His-STAT3 binding, anti-His fluorescence | P40763;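 active = compounds whose four printed spots each show fluorescence over background unusually high for their array block, chance value under 7%; compounds were printed on slides so no solution concentration is given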;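 also: about 2 pmol printed per array spot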
Calls only; i = inactive; · = no result given; + = active, no number. These rows are one share of the data; rates above refer to the full screens.

smiles	c-Myc SMM	ID4 SMM	mut p53 SMM	STAT3 binder
C[C@@H]1CN([C@@H](C)CO)C(=O)c2cc(NC(=O)c3ccncc3)ccc2O[C@@H](C)CCCCO[C@H]1CN(C)Cc1ccc(C(=O)O)cc1	i	i	i	i
CN1CCN(c2nc3cc(C(F)(F)F)ccc3n3cccc23)CC1	i	i	i	i
C[C@@H]1CN([C@@H](C)CO)C(=O)c2cc(N(C)C)ccc2O[C@@H](C)CCCCO[C@@H]1CN(C)Cc1ccccc1	i	i	i	i
CNC[C@@H]1Oc2c(cccc2N(C)C)C(=O)N([C@H](C)CO)C[C@H]1C	i	i	i	i
C[C@@H]1CN([C@H](C)CO)C(=O)c2cc(NC(=O)c3ccncc3)ccc2O[C@@H](C)CCCCO[C@H]1CN(C)C(=O)Nc1cccc2ccccc12	+	i	i	i
C[C@@H]1CN([C@@H](C)CO)C(=O)c2cc(NC(=O)Nc3ccccc3)ccc2O[C@@H](C)CCCCO[C@H]1CN(C)C	i	i	i	i
C[C@H](CO)N1C[C@H](C)[C@@H](CN(C)CC2CC2)Oc2c(NC(=O)C3CCOCC3)cccc2C1=O	i	i	i	i
COc1ccc(-c2nnc(SCC(N)=O)n2-c2ccccc2)cc1	i	i	i	i
C[C@H](CO)N1C[C@H](C)[C@H](CN(C)S(=O)(=O)c2ccc(Cl)cc2)Oc2ccc(NS(=O)(=O)c3ccccc3)cc2CC1=O	i	·	i	i
CCc1c(C)nc(SCC(=O)Nc2ccc(C)cc2)[nH]c1=O	i	i	i	i
CC(Oc1cccc(Cl)c1)C(=O)Nc1cc(C(=O)O)cc(C(=O)O)c1 (configuration not stated)	i	i	i	i
CC(C)NC(=O)Nc1ccc2c(c1)C(=O)N([C@H](C)CO)C[C@@H](C)[C@H](CN(C)S(=O)(=O)c1cn(C)cn1)OCCCC[C@H](C)O2	i	i	i	i
C[C@H](CO)N1C[C@H](C)[C@H](CN(C)C)Oc2ncc(C#Cc3ccc(F)cc3)cc2C1=O	i	i	i	i
Cc1cc(OCC(=O)Nc2cc(C(=O)O)cc(C(=O)O)c2)cc(C)c1Cl	i	i	i	i
Cc1noc(C)c1NC(=O)Nc1ccc2c(c1)CC(=O)N([C@@H](C)CO)C[C@H](C)[C@@H](CN(C)C(=O)NC(C)C)O2	i	i	i	i
C[C@H]1CN([C@@H](C)CO)C(=O)c2cc(NC(=O)C3CC3)ccc2O[C@@H]1CN(C)Cc1ccc(Cl)c(Cl)c1	i	i	i	i
O=S(=O)(CCc1nc2ccccc2o1)c1ccc(Cl)cc1	i	i	i	i
C[C@H]1CCCCO[C@H](CN(C)Cc2ccncc2)[C@@H](C)CN([C@@H](C)CO)C(=O)c2cc(NC(=O)Nc3ccccc3)ccc2O1	i	i	i	i
Cc1noc(C)c1S(=O)(=O)Nc1ccc2c(c1)C(=O)N([C@H](C)CO)C[C@H](C)[C@H](CN(C)C(=O)Nc1ccc(F)cc1)O2	i	i	i	i
C[C@@H]1CN([C@@H](C)CO)C(=O)Cc2cc(NS(=O)(=O)c3ccc(Cl)cc3)ccc2O[C@@H]1CN(C)C(=O)NC1CCCCC1	i	i	i	i
C[C@@H]1CCCCO[C@@H](CN(C)Cc2ccncc2)[C@H](C)CN([C@H](C)CO)C(=O)c2cc(NS(=O)(=O)c3ccc(Cl)cc3)ccc2O1	i	·	i	i
C[C@@H]1CN([C@@H](C)CO)C(=O)Cc2cc(NS(=O)(=O)c3cn(C)cn3)ccc2O[C@@H]1CN(C)S(=O)(=O)c1ccc(Cl)cc1	i	i	i	i
C[C@@H]1CN([C@@H](C)CO)C(=O)Cc2cc(NC(=O)CCN3CCOCC3)ccc2O[C@H]1CN(C)Cc1ccc(-c2ccccc2)cc1	+	i	i	i
COc1ccc(CN(C)C[C@H]2Oc3ccc(NC(=O)C4CC4)cc3C(=O)N([C@H](C)CO)C[C@@H]2C)cc1	i	i	i	i
Cc1cccc(C)c1OCC(=O)NCc1cccnc1	i	i	i	i
COc1ccc(NC(=O)CSc2nc(C(C)(C)C)cs2)cc1	i	i	i	i
O=C(O)C1=C[C@@H](c2csc3ccccc23)C[C@@H](OCCCCO)O1	i	i	i	i
Cc1noc(C)c1NC(=O)N(C)C[C@@H]1Oc2ccc(NS(=O)(=O)c3cn(C)cn3)cc2CC(=O)N([C@H](C)CO)C[C@@H]1C	i	i	i	i
OC(CN1c2ccccc2Sc2ccccc21)Cn1nnc2ccccc21 (configuration not stated)	i	i	i	i
CCc1nc(SCC(=O)OC)c2c3c(sc2n1)CCCC3	i	i	i	i
CC(C)=CCc1c(O)c(CC=C(C)C)c2c(c1O)C(=O)CC(c1ccc(O)cc1O)O2 (configuration not stated)	i	i	i	i
C[C@@H]1CN([C@@H](C)CO)C(=O)c2cc(NC(=O)Nc3ccc4c(c3)OCO4)ccc2O[C@H]1CN(C)Cc1ccc(Cl)c(Cl)c1	i	i	i	i
CCOC(=O)C1=C(C)NC(c2ccccc2)=C(C(=O)OCc2ccc([N+](=O)[O-])cc2)C1C#Cc1ccccc1 (configuration not stated)	i	·	i	i
C[C@H](CO)N1C[C@H](C)[C@H](CN(C)S(=O)(=O)c2ccc3c(c2)OCCCO3)OCc2cn(nn2)CCCC1=O	i	i	i	i
O=[N+]([O-])c1nn(-c2ccccc2)n(O)c1=NCc1ccco1	i	i	i	i
C[C@@H]1CN([C@@H](C)CO)C(=O)Cc2cc(NC(=O)c3ccncc3)ccc2O[C@H]1CN(C)CC1CC1	i	i	i	i
CNC[C@@H]1OCCCC[C@@H](C)Oc2ccc(NC(=O)c3ccncc3)cc2C(=O)N([C@@H](C)CO)C[C@H]1C	i	i	i	i
COc1ccc([Si](C)(C)[C@@H]2[C@@H](CCO)O[C@]3(C(=O)N(Cc4cccc(N5CCOC5=O)c4)c4ccccc43)[C@H]2C)cc1	i	i	i	i
C/C=C(\C)C(=O)O[C@H]1C=CC(=O)O[C@H]1/C=C/[C@H](O)[C@H](C)O	i	i	i	i
C[C@@H]1CN([C@H](C)CO)C(=O)c2cccc(NS(=O)(=O)c3cn(C)cn3)c2O[C@@H]1CN(C)C(=O)Nc1cccc2ccccc12	i	i	i	i
C[C@H]1CN([C@@H](C)CO)C(=O)Cc2cc(NS(=O)(=O)c3cn(C)cn3)ccc2O[C@H]1CN(C)S(=O)(=O)c1cn(C)cn1	i	i	i	i
C[C@@H]1CN([C@H](C)CO)C(=O)c2cc(NC(=O)c3ccncc3)ccc2O[C@H]1CN(C)C(=O)Nc1ccc2c(c1)OCO2	i	i	i	i
CC(=O)Nc1ccccc1-c1cn(CC(=O)N2CCOCC2)nn1	i	i	i	i
C[C@H]1CCCCO[C@@H](CN(C)S(=O)(=O)c2ccccc2)[C@@H](C)CN([C@@H](C)CO)C(=O)c2cc(NS(=O)(=O)c3cn(C)cn3)ccc2O1	i	i	i	i
CCc1ccccc1NC(=O)CSc1nnc(C)s1	i	i	i	i
C=C[C@@H](COC(=O)c1ccc([N+](=O)[O-])cc1)N(Cc1ccc(OC)cc1)S(=O)(=O)c1ccc(Br)cc1	i	i	i	i
CC(C)NC(=O)N(C)C[C@H]1OCCCC[C@@H](C)Oc2ccc(NC(=O)c3ccncc3)cc2C(=O)N([C@H](C)CO)C[C@H]1C	i	i	i	i
CNC[C@H]1Oc2ccc(NS(=O)(=O)c3ccc(OC)cc3)cc2CC(=O)N([C@@H](C)CO)C[C@@H]1C	i	·	i	i
C[C@H]1CCCCO[C@H](CN(C)C)[C@@H](C)CN([C@@H](C)CO)C(=O)c2cc(NC(=O)C3CCCCC3)ccc2O1	i	i	i	i
COc1cc(O[C@@H]2O[C@H](CO)[C@@H](O)[C@H](O)[C@H]2O)cc2occ(-c3ccc(O)cc3)c(=O)c12	i	i	i	i
COc1ccc(NC(=S)NCc2cn(-c3ccccc3)nc2-c2ccccc2)cc1OC	i	i	i	i
C[C@@H]1CN([C@H](C)CO)C(=O)c2cccc(NC(=O)c3nc4ccccc4s3)c2O[C@@H]1CN(C)C(=O)Nc1ccccc1	i	i	i	i
C[C@@H]1CN([C@H](C)CO)C(=O)Cc2cc(NC(=O)Nc3ccccc3)ccc2O[C@@H]1CN(C)Cc1ccncc1	i	i	i	i
CCOC(=O)c1cc(C2COc3ccccc3O2)sc1NC(=S)NC(=O)c1ccccc1 (configuration not stated)	i	i	i	i
O=C1CC(c2ccc(O)c(O)c2)Oc2c1ccc(O)c2O (configuration not stated)	i	i	i	i
COc1ccc(CCNC(=O)[C@@]2(Cc3ccccc3I)c3ccccc3C(=O)N(Cc3ccccc3OC)[C@H]2c2ccc(CO)cc2)cc1	i	i	i	i
C[C@H]1CCCCO[C@H](CN(C)Cc2ccccc2)[C@@H](C)CN([C@@H](C)CO)C(=O)c2cc(NS(C)(=O)=O)ccc2O1	i	i	i	i
C[C@@H]1CCCCO[C@@H](CN(C)C(=O)c2ccncc2)[C@H](C)CN([C@H](C)CO)C(=O)c2cc(NC(=O)CCC(F)(F)F)ccc2O1	i	i	i	i
C[C@@H]1CN([C@H](C)CO)C(=O)c2cc(NC(=O)Nc3ccc(F)cc3)ccc2O[C@@H](C)CCCCO[C@H]1CN(C)C(=O)Nc1ccccc1	i	·	i	i
COc1ccc(S(=O)(=O)N(C)C[C@@H]2Oc3c(NC(=O)Nc4ccccc4)cccc3C(=O)N([C@H](C)CO)C[C@@H]2C)cc1	i	·	i	i

In a second layout: results already given.
Values run as follows: c-Myc SMM | ID4 SMM | mut p53 SMM | STAT3 binder
Cc1noc(C)c1NC(=O)Nc1ccc2c(c1)CC(=O)N([C@@H](C)CO)C[C@H](C)[C@@H](CN(C)C(=O)NC(C)C)O2
→ i | i | i | i
C[C@@H]1CN([C@H](C)CO)C(=O)c2cc(NC(=O)c3ccncc3)ccc2O[C@H]1CN(C)C(=O)Nc1ccc2c(c1)OCO2
→ i | i | i | i

Other records
smiles	c-Myc SMM	ID4 SMM	mut p53 SMM	STAT3 binder
[O-]/[N+](=N\OCCBr)N1CCCC1	i	i	i	i
C[C@@H]1CN([C@@H](C)CO)C(=O)c2cccc(NS(C)(=O)=O)c2O[C@@H]1CN(C)S(=O)(=O)c1cn(C)cn1	i	i	i	i
COC(=O)C(CC#Cc1ccc2c(c1)[C@]1(C(=O)N2)[C@H](C(=O)Nc2nc3ccccc3s2)[C@H]2C(=O)O[C@H](c3ccccc3)[C@H](c3ccccc3)N2[C@@H]1c1ccccc1OCCO)C(=O)OC	i	i	i	i
C[C@H](CO)N1C[C@H](C)[C@@H](CN(C)C(=O)Nc2ccc(C(F)(F)F)cc2)Oc2ccc(NS(=O)(=O)c3ccccc3)cc2C1=O	i	i	i	i
C[C@H]1CN([C@@H](C)CO)C(=O)Cc2cc(NC(=O)CCC(F)(F)F)ccc2O[C@H]1CN(C)S(=O)(=O)c1ccccc1	i	i	i	i
Cc1cc(C)nc(SCCS(=O)(=O)Cc2ccccc2)n1	i	i	i	i
C[C@H](CO)N1C[C@H](C)[C@H](CN(C)S(=O)(=O)c2cn(C)cn2)Oc2c(NS(=O)(=O)c3ccc(Cl)cc3)cccc2C1=O	i	i	i	i
OC(CSc1ccncc1)CC(O)c1ccccc1 (configuration not stated)	i	i	i	i
C[C@@H]1CN([C@@H](C)CO)C(=O)c2cc(NC(=O)NC3CCCCC3)ccc2O[C@@H](C)CCCCO[C@@H]1CN(C)S(=O)(=O)c1ccccc1	i	·	i	i
C[C@@H]1CN([C@@H](C)CO)C(=O)c2cccc(NC(=O)C3CCOCC3)c2O[C@H]1CN(C)C(=O)Nc1ccc(F)cc1	i	i	i	i
COc1ccc(S(=O)(=O)N(C)C[C@@H]2Oc3ccc(NC(=O)Cc4ccccc4)cc3C(=O)N([C@H](C)CO)C[C@H]2C)cc1	i	i	i	i
COC(=O)c1ccccc1Oc1nc(NC(C)C)nc(NC(C)C)n1	i	i	i	i
NC(=O)C1(N2CCCCC2)CCN(C(=S)NCc2ccco2)CC1	i	i	i	i
C[C@H]1CCCCO[C@H](CN(C)C(=O)C2CCCCC2)[C@@H](C)CN([C@@H](C)CO)C(=O)c2cc(NC(=O)Nc3ccc(F)cc3)ccc2O1	i	·	i	i
C[C@H]1CN([C@@H](C)CO)C(=O)Cc2cc(NC(=O)Cn3cnnn3)ccc2O[C@@H]1CN(C)C(=O)Nc1ccccc1	i	i	i	i
CC(C)N1CCN(c2ccc(C(=O)c3c(-c4ccc(O)cc4)sc4cc(O)ccc34)cc2)CC1	i	i	i	i
C[C@@H]1CN([C@H](C)CO)C(=O)c2cc(NS(=O)(=O)c3ccccc3)ccc2O[C@@H](C)CCCCO[C@H]1CN(C)Cc1ccc2c(c1)OCO2	i	i	i	i
C[C@@H]1CCCCO[C@H](CN(C)C(=O)c2ccccc2)[C@H](C)CN([C@@H](C)CO)C(=O)c2cc(NC(=O)Nc3ccc(F)cc3)ccc2O1	i	i	i	i

For reference, part of the list above:
smiles	c-Myc SMM	ID4 SMM	mut p53 SMM	STAT3 binder
[O-]/[N+](=N\OCCBr)N1CCCC1	i	i	i	i
C[C@@H]1CN([C@@H](C)CO)C(=O)c2cccc(NS(C)(=O)=O)c2O[C@@H]1CN(C)S(=O)(=O)c1cn(C)cn1	i	i	i	i
